BJeLR viability = MLPCN primary cell-based screen for lethality selective to Ras in HRASV12 cells | BJeLR (HRASV12) viability, CellTiter-Glo ATP luminescence, 48 h; reference of the scale not given here | inhibition, % (no concentration beside the values) | 0.17% of 300,000 active | AID 1554, 2009;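 active = replicate mean above 50%; inconclusive = above 50% but judged a plate artefact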;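 also: 50 nL library stock added to about 25 µL; numbers are from one replicate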
Autofluor counter = counter-screen for toxin protease inhibitors: compound fluorescence | AID 624483 | fluorescence intensity (no concentration beside the values) | compound autofluorescence counterscreen, microsphere flow cytometry; hits give high values | 3.1% of 360,000 active;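 active = at least 3 SD above the mean of all compounds, about 16000 in these data; inconclusive = too few beads counted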;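 also: 100 nL of 1 mM stock went into each well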
ugtP null kill = growth inhibition of ugtP-null S. aureus, primary screen, RN4220 ugtP deletion, OD600; 16 h; some inactives read as strong as hits; growth inhibition, % (no concentration beside the values); 0.54% of 330,000 active;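 active = z-score under -3 and OD600 up to 0.15 on both plates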;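 also: plate controls were untreated wells for no effect and antibiotic for full effect; wells of about 80 µL received 100 nL stock; the first replicate is given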
Sa RN4220 lethal = growth inhibition of S. aureus RN4220, primary screen, OD600; 16 h; inhibition, % (test concentration not listed); 0.33% of 330,000 active; AID 1259311, 2017;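 active = z-score of -3 or lower and OD600 up to 0.18 on both plates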;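 also: plate controls were untreated cells for no effect and reference antibiotic for full effect; stock transfer was 100 nL into about 80 µL; one replicate is shown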
Mtb hypoxia rep = PubChem AID 1159583 | M. tuberculosis hypoxia-regulated fluorescent reporter, fluorescence | 0.1% of 300,000 active | fluorescence inhibition, % (no concentration beside the values);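 active = 35 to 45% if threefold the growth effect, above 45% if 1.5-fold the growth effect; inactive = the rest, general growth blockers included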;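 also: wells of about 50 µL received 100 nL stock; 0% = vehicle wells and 100% = reference inhibitor wells; whole bacteria with a GFP reporter of the hypoxia response; strong numbers were not always called active; many hits fall short of the cut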
PrP UTR inh = inhibition of PrP 5' UTR reporter expression. 0.35% of 340,000 active. inhibition, % (no concentration beside the values). cell-based PrP 5' UTR mRNA reporter, plate reader;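 active = every replicate at 50% or more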;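 also: 0 = median of the neutral control wells; tested in H4 reporter cells; numbers are from one replicate; inactives centre near -14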
Mtb hypoxia rep growth = recorded beside Mtb hypoxia rep, whose call it bears; growth inhibition, %; measured here: M. tuberculosis growth (absorbance);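 0% = vehicle and 100% = reference antibiotic; read after six days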
Numbers without * were called inactive; ? = inconclusive; . = no result given; & = joins results of further samples; ! = a repeat was not active.

nr	molecule	BJeLR viability	Autofluor counter	ugtP null kill	Sa RN4220 lethal	Mtb hypoxia rep	Mtb hypoxia rep growth	PrP UTR inh
1	O=C(NCCCN1CCCC1=O)c1c(O)nc2sccn2c1=O	-4	?	3	1.8	11	-6	-17
2	CCOC(=O)c1c(NC(=O)Cn2cnc([N+](=O)[O-])n2)sc2c1CCCC2	0	1989	41	-6.6	7	13	3
3	CCC(=O)Nc1c(C)nn(C(=O)CC)c1C	-8	3683	3	4.4	.	.	-14
4	COc1cccc(C(=O)N2CCC(N3CC(C)OC(C)C3)CC2)c1 (configuration not stated)	-6	2366	-1	3.5	15	4	-43
5	CCOC(=O)c1c(N)sc(C(=O)Nc2ccccc2F)c1C	-3	4747	10	-3.6	7	4	-84
6	C/C(=N\NC(=O)c1ccccc1)c1ccc(-n2ccnc2)cc1	1	3602	.	.	.	.	-12
7	CCC(C)NC(=O)c1ccccc1-c1nc2ccccc2[nH]1 (configuration not stated)	-11	2033	7	1.1	6	10	-19
8	COc1ccc(NC(=O)C2CCCCN2S(=O)(=O)c2ccccc2)cc1S(=O)(=O)N1CCOCC1 (configuration not stated)	.	3468	6	1.1	-2	-3	-26

Sorted by count of non-hydrogen atoms (descending): some entries from above
nr	molecule	BJeLR viability	Autofluor counter	ugtP null kill	Sa RN4220 lethal	Mtb hypoxia rep	Mtb hypoxia rep growth	PrP UTR inh
2	CCOC(=O)c1c(NC(=O)Cn2cnc([N+](=O)[O-])n2)sc2c1CCCC2	0	1989	41	-6.6	7	13	3
6	C/C(=N\NC(=O)c1ccccc1)c1ccc(-n2ccnc2)cc1	1	3602	.	.	.	.	-12
7	CCC(C)NC(=O)c1ccccc1-c1nc2ccccc2[nH]1 (configuration not stated)	-11	2033	7	1.1	6	10	-19

Look-ups from the list.
BJeLR viability, CCOC(=O)c1c(N)sc(C(=O)Nc2ccccc2F)c1C : -3
Autofluor counter, COc1cccc(C(=O)N2CCC(N3CC(C)OC(C)C3)CC2)c1 (configuration not stated) : 2366
BJeLR viability, O=C(NCCCN1CCCC1=O)c1c(O)nc2sccn2c1=O : -4

The list goes on.
nr	molecule	BJeLR viability	Autofluor counter	ugtP null kill	Sa RN4220 lethal	Mtb hypoxia rep	Mtb hypoxia rep growth	PrP UTR inh
9	CCOC(=O)C1=CN(c2cccc(F)c2)C=C(C(=O)OCC)C1c1cc(OC)c(O)c([N+](=O)[O-])c1	-1	11626	-14	-1.2	-2	6	-20
10	CCOc1ccc(S(=O)(=O)N(CC)CC)cc1NS(=O)(=O)c1ccc(F)c(F)c1F	3	2115	-9	6.8	-4	-6	1
11	Cc1occc1C(=O)N1CCC2(CC1)OCCO2	-4	23817*	6	1.3	10	2	-24
12	Cc1cc(C)nc(SCc2nnc(SCC(=O)Nc3ccc(C)c(C)c3)n2Cc2ccco2)n1	-6	9497	-2	3.0	1	5	-5
13	CC(C)(C)c1ccccc1NC(=O)C1=COCCO1	-2	.	7	1.7	-3	-7	-6
14	CSc1nc2cc(S(=O)(=O)N3CCOCC3)ccc2s1	5	11233	3	2.3	9	0	-15
15	Cc1ccc(NS(=O)(=O)c2cc(-c3n[nH]c(=O)c4ccccc34)ccc2C)cc1	1	2268	.	.	.	.	-17
16	Cc1cc(-c2cc(C(=O)O)c3ccccc3n2)c(C)s1	6	4960	4	0.3	9	9	2

Later entries:
nr	molecule	BJeLR viability	Autofluor counter	ugtP null kill	Sa RN4220 lethal	Mtb hypoxia rep	Mtb hypoxia rep growth	PrP UTR inh
17	O=C(NNC(=O)C1CC1)c1ccccc1[N+](=O)[O-]	.	5264	5	5.9	-12	-12	-22
18	COc1ccc(NC(=O)c2cc3cccc(OC)c3oc2=Nc2ccc(C(=O)O)cc2)cc1OC	8	4112	-9	4.9	13	1	-17
19	O=C(CN(CCc1ccccc1)S(=O)(=O)c1ccc(Cl)cc1)NN=Cc1ccc2c(c1)OCO2	.	.	-1	2.6	6	-3	.
20	CC(C)OC(=O)CSc1nnc(-c2ccncc2)n1N	-4	4129	-4	1.0	9	9	-18
21	O=c1c2ccccc2cnn1-c1ccc2ccccc2c1	-10	23123*	-2	5.2	10	17	-102
22	COc1ccc2[nH]c3c(N4CCN(Cc5ccc6c(c5)OCO6)CC4)ncnc3c2c1	0	2533	-1	4.3	5	16	-3
23	O=S(=O)(Nc1nc2ccccc2nc1NCC1CCCO1)c1cccc(Cl)c1 (configuration not stated)	-7	4357	5	13	11	3	2
24	O=C1c2c(O)cc(O)cc2OC(c2ccc(O)c(O)c2)C1O (configuration not stated)	.	.	-5	6.8	5	3	.

(cont.)
nr	molecule	BJeLR viability	Autofluor counter	ugtP null kill	Sa RN4220 lethal	Mtb hypoxia rep	Mtb hypoxia rep growth	PrP UTR inh
25	CCOc1cc(N2CCOCC2)c(OCC)cc1NC(=O)CSc1ncn[nH]1	-3	3475	19	3.0	6	1	-9
26	COc1ccc(S(=O)(=O)Nc2ccc(S(=O)(=O)Nc3cc(C)nc(C)n3)cc2)cc1OC	2	5924	2	3.2	-14	-10	-17
27	CC1(C)CC(NC(=O)c2ccc(Cl)c(Cl)c2)CC(C)(C)N1	4	13239	5	2.5	19	1	-22
28	COc1ccc(NC(=O)c2cc(C)nc3ccccc23)cc1S(=O)(=O)N1CCOCC1	.	3160	0	1.0	4	5	-10
29	CCc1nnc(NC(=O)c2ccc(S(=O)(=O)N(C)c3ccccc3)cc2)o1	2	2731	-3	29	-16	-3	-14
30	COc1ccc(-c2csc3ncnc(N4CCN(c5ccccc5Cl)CC4)c23)cc1	-11	5509	-3	-15	5	11	-7
31	CC(C)(C)NC(=O)C(c1ccncc1)N(Cc1ccco1)C(=O)c1ccc(-c2ccccc2)[nH]1 (configuration not stated)	-10	3243	.	.	.	.	-1
32	COC(=O)c1ccc2c(c1)N(C)S(=O)(=O)c1cnc(SCC(=O)C(C)(C)C)nc1-2	8	.	5	7.1	8	15	.

Next results follow.
nr	molecule	BJeLR viability	Autofluor counter	ugtP null kill	Sa RN4220 lethal	Mtb hypoxia rep	Mtb hypoxia rep growth	PrP UTR inh
33	C=CCN1c2ccccc2[C@]23CC(C(=O)OC)N(C(=O)c4ccc(Br)cc4)C2=NC(C(=O)OC)=C(C(=O)OC)C13 (some centres not stated)	.	.	-7	-4.2	-5	-16	.
34	Cc1cc(C)c([N+](=O)[O-])cc1NCC(=O)N1CCN(c2ccccc2)CC1	1	4333	6	3.1	-2	4	-51
35	Cc1ccc(CNC(=O)C2CCN(S(=O)(=O)c3c(C)noc3/C=C/N(C)C)CC2)cc1	5	5505	3	0.6	5	0	4
36	COc1ccc(CCn2c(=S)[nH]c3cc(C(=O)N4CCOCC4)ccc3c2=O)cc1OC	1	3793	2	2.6	11	8	-22
37	CCN(CC)c1ccc(C=NOC(C)C(=O)Nc2ccc(C)cc2)cc1 (configuration not stated)	.	.	6	2.3	-6	-7	.
38	CCC(NC(=O)C1(C)CC1(Br)Br)c1ccc(C)cc1 (configuration not stated)	4	2392	-14	2.1	.	.	-19
39	CC(=NN1CCN(c2ccccc2)CC1)c1cccc([N+](=O)[O-])c1	.	.	7	6.3	5	6	.
40	CCOC(=O)C1=C(C)NC(C)=C(C(=O)OCC)C1	0	18757*!	12&5	0.3&3.5	8&-1	0&9	-23&-33

Other records follow.
nr	molecule	BJeLR viability	Autofluor counter	ugtP null kill	Sa RN4220 lethal	Mtb hypoxia rep	Mtb hypoxia rep growth	PrP UTR inh
41	CC(=O)Nc1ccc2c(c1)CCCC2=O	8	5457	4	4.1	11	10	-28
42	CCCCCn1c(=NC(=O)c2ccco2)c(C(=O)OCC)cc2c(=O)n3ccccc3nc21	-5	3920&10488	0	0.4	-3	3	-30
43	CC(=NNC(N)=O)C1CC(CC(C)C)C(=O)O1 (configuration not stated)	.	.	11	7.6	-1	1	.
44	O=C(NC1CCC(=O)N(C(CSc2ccc(Br)cc2)Cc2ccccc2)CC1)OCc1ccccc1 (configuration not stated)	.	.	-10	-3.9	0	7	.
45	Cc1ccc2cc(C(=O)O)c(C)nc2c1	3	2899	-6	2.4	.	.	-26
46	CC(=O)NC1C(=O)N(CCN2CCOCC2)c2ccc(Br)cc21 (configuration not stated)	-1	4022	.	.	.	.	-21
47	CCC(CC)C(=O)Nc1nnc(S(=O)(=O)N2CCc3ccccc32)s1	3	5343	-2	3.2	-5	-4	-3
48	CCOc1ccccc1NC(=O)C(OC(=O)c1ccc(CC)cc1)c1ccccc1 (configuration not stated)	12	2515	63	-7.9	4	3	-3

Entries listed so far with bromine (4):
nr	molecule	BJeLR viability	Autofluor counter	ugtP null kill	Sa RN4220 lethal	Mtb hypoxia rep	Mtb hypoxia rep growth	PrP UTR inh
33	C=CCN1c2ccccc2[C@]23CC(C(=O)OC)N(C(=O)c4ccc(Br)cc4)C2=NC(C(=O)OC)=C(C(=O)OC)C13 (some centres not stated)	.	.	-7	-4.2	-5	-16	.
38	CCC(NC(=O)C1(C)CC1(Br)Br)c1ccc(C)cc1 (configuration not stated)	4	2392	-14	2.1	.	.	-19
44	O=C(NC1CCC(=O)N(C(CSc2ccc(Br)cc2)Cc2ccccc2)CC1)OCc1ccccc1 (configuration not stated)	.	.	-10	-3.9	0	7	.
46	CC(=O)NC1C(=O)N(CCN2CCOCC2)c2ccc(Br)cc21 (configuration not stated)	-1	4022	.	.	.	.	-21

Going on with the list.
nr	molecule	BJeLR viability	Autofluor counter	ugtP null kill	Sa RN4220 lethal	Mtb hypoxia rep	Mtb hypoxia rep growth	PrP UTR inh
49	COc1ccc(CC(=O)O/N=C(\N)c2cccc([N+](=O)[O-])c2)cc1	4	2099	8	0.5	3	2	-33
50	Cc1cccc(C)c1NC(=O)CN(C)C(=O)c1cccc(-n2cccc2)c1	0	?	0	4.7	10	1	-8
51	CC(C)C[C@H]1COCCS(=O)(=O)N1Cc1cccc(F)c1	0	3914	.	.	.	.	-5
52	CCCCn1c(O)c(C(CC)=NCCCN(C)C)c(=O)[nH]c1=O	2	16159*	-9	-6.2	-21	-11	-2
53	CC(C)(C)NC(=O)C1CC(=O)OC12CCOC(C)(C)C2 (configuration not stated)	25	4240	8	0.7	5	5	-24
54	C(=C\c1nc(-c2cccnc2)no1)/c1ccccc1	-6	4389	3	12	13	2	-103
55	COC(=O)c1ccc(Sc2ccccc2NS(=O)(=O)c2ccc(NC(C)=O)cc2)nc1	-7	4748	-6	17	12	13	-4
56	CCOC(=O)C1=C(C)Nc2nc(SCC(=O)OC)nn2C1c1cc(F)cc(F)c1 (configuration not stated)	3	3751&5976	1	1.4	0	6	-23&-6

More entries:
nr	molecule	BJeLR viability	Autofluor counter	ugtP null kill	Sa RN4220 lethal	Mtb hypoxia rep	Mtb hypoxia rep growth	PrP UTR inh
57	Cc1ccc(C(NC(N)=O)c2ccccc2C)cc1 (configuration not stated)	-6	6720	12	1.2	13	7	-2
58	CC(=O)c1cccc(N=Cc2c(O)c3ccccc3oc2=O)c1	5	3795	0	-1.6	9	16	-10
59	C/C(=C\C(=S)Nc1ccccc1)Nc1cccc2ccccc12	-17	2448	3	4.1	13	7	-12
60	CCOc1ccc(CCNC(=O)c2cccc3c2C(=O)N(CCOC)C3)cc1OCC	-9	3683	17	-1.2	11	10	-27
61	Cc1ccc(C=Nn2c(-c3ccc(Cl)cc3)n[nH]c2=S)o1	.	.	-4	1.1	10	8	.
62	COc1cccc(-n2nnnc2SCC(=O)NCCc2ccc(OC)c(OC)c2)c1	-3	4577	0	0.8	3	2	-32
63	CC1CC1C(=O)OCC(=O)Nc1cccc(Br)c1 (configuration not stated)	.	6609	4	4.0	0	-4	-17
64	COc1ccc(C(=O)Nc2ccc(Cl)cc2C(=O)NCc2ccco2)cc1	13	9752	-14	-4.2	-4	9	-22
65	CCOc1ccc(-c2nc(S(=O)(=O)c3ccccc3)c(NCc3cccnc3)o2)cc1	6	2872	-4	-2.6	.	.	-57

Assay outcomes: PubChem BioAssay, several laboratories

No enrichment for hits, and some 4% of all compounds hit somewhere here.
